Assay outcomes (PubChem)
MARV entry inh = qHTS for inhibitors of binding or entry into cells for Marburg Virus; Marburg virus pseudotyped entry inhibition, cell reporter; control for the full effect not named in the record; about a third of the inactives were read at about 46 µM; Potency, µM (series often up to 37.8 µM), for inactives: top-dose activity change, negative = inhibition, hits mostly inhibitors; 300,000 tested, 1.8% active; AID 540276, 2011; active = well fitted inhibition curve with a large enough effect; inconclusive = small, poorly fitted or top-dose-only effect, or effect the other way; inactive = flat fitted curve, though single readings scatter; tested in HEK293 cells; about a fifth of its hits are not listed in these tables; further: on the % scale 0 is the no-effect control and ±100 the full control effect; luciferase read-out
LASV entry inh = qHTS for Inhibitors of binding or entry into cells for Lassa Virus; Lassa virus pseudotype entry inhibition, cell reporter; control for the full effect not named in the record; Potency, µM (doses to about 37.9 µM), for the others: at the highest dose activity change, negative = inhibition, usual class: inhibitors; 300,000 tested, 1.2% active; AID 540256, 2011; active means well fitted inhibition curve with a large enough effect; inconclusive means small, poorly fitted or top-dose-only effect, or effect the other way; inactive means flat fitted curve, though single readings scatter; tested in HEK293 cells; further: on the % scale 0 is the no-effect control and ±100 the full control effect; nearly all actives have a fitted effect of over 50% in size; luciferase read-out
NS1 inh = qHTS Assay for Inhibitors of Influenza NS1 Protein Function; S. cerevisiae slowed by influenza A NS1, growth recovery by OD600; Potency, µM (series often up to 46.1 µM), for inactives: top-dose activity, positive = more growth; 270,000 tested, 0.4% active; AID 2326, 2010; further: actives are rising curves; nearly all actives have a fitted effect of over 50% in size
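Read-out: OD600 growth recovery of NS1-expressing budding yeast. Cells grown overnight at 30C in -URA glucose medium, washed, resuspended and diluted 1:100 in 2% galactose assay medium, pH 6.0. Same strain lacking NS1 served as positive control.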
RE007 growth inh = qHTS Assay for Inhibitors of the HIV-1 protein Vpr. AID 651644, 2012. Potency, µM (top dose mostly 92.2 µM), without a hit: at the top dose activity change, negative = less growth. S. pombe RE007 Vpr strain, BacTiter-Glo ATP luminescence, 24 h; control for the full effect not named in the record. 360,000 tested, 0.21% active; active = well fitted falling curve with a large enough effect; inconclusive = small, poorly fitted or top-dose-only effect; inactive = no such curve, though single readings can be large or run the other way;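 further: on the % scale 0 is the no-effect control and ±100 the full control effect; nearly all actives have a fitted effect of over 50% in size; the assay follows cell death caused by Vpr and the record does not say whether a fall means rescue or toxicity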
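Fission yeast strain RE007, carrying one chromosomally integrated HIV-1 vpr copy, was seeded at OD 0.01 in PMG+AL medium with 23 nL pinned compound. After 24 h at 30 °C and 99% humidity, viability was read by BacTiter-Glo luminescence.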
Cruzain inh noDet = qHTS Assay for Promiscuous and Specific Inhibitors of Cruzain (without detergent); Potency, µM, inactives show max response, negative = inhibition, hits mostly inhibitors; 200,000 tested, 2.3% active; purified cruzain, Z-FR-AMC fluorescence, no detergent; active means well fitted curve in the direction sought with a large enough effect; inconclusive means small, poorly fitted or top-dose-only effect, or another doubt; inactive means no such curve, though single readings can be large; an effect the other way counts as inactive or inconclusive;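 further: plate controls were enzyme without inhibitor for no effect and buffer without enzyme for full effect; nearly all actives have a fitted effect of over 40% in size; top concentration of the series not given in the record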
Target sequence (P25779 123-467 limits assumed): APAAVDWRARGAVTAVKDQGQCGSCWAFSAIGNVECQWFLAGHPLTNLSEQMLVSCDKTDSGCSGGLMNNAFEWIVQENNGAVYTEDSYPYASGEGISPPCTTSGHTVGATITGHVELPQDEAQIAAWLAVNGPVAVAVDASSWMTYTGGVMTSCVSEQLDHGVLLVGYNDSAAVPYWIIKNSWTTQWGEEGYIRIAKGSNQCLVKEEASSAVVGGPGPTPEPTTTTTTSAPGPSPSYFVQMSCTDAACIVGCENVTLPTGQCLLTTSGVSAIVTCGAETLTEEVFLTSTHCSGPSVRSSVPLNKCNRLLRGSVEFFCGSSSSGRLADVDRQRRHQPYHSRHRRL
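Detergent-free condition (0.00005% Triton X-100) in acetate buffer pH 5.5 with DTT. 1.5 nM enzyme and compound were pre-mixed 15 min, then 2 uM Z-FR-AMC substrate added; reaction progress from fluorescence change between first and third reads (60 s).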
2A StopGo = High Throughput Screening for Foot and Mouth Disease Virus Antivirals. human cells with a luciferase reporter of 2A StopGo recoding; control for the full effect not named in the record. Potency, µM (titrated, usually from 57.9 µM), for the others: at the highest dose signal change, negative = less light. 410,000 tested, 1.2% active. AID 1159524, 2015; active = well fitted falling curve with a large enough effect; inconclusive = small, poorly fitted or top-dose-only effect; inactive = no such curve, though single readings can be large or run the other way; tested in HEK293T cells; further: on the % scale 0 is the no-effect control and ±100 the full control effect; nearly all actives have a fitted effect of over 45% in size; luciferase light after 4 h
SARS PLpro yeast = qHTS of Yeast-based Assay for SARS-CoV PLP | 330,000 tested, 0.19% active | S. cerevisiae expressing SARS-CoV PLpro, growth rescue; control for the full effect not named in the record | Potency, µM (top dose mostly 32.9 µM), inactives show at the highest dose activity, positive = growth rescue; further: 0% is about no effect; nearly all actives have a fitted effect of over 55% in size; growth read by luminescence after 48 h
Cruzain Triton = qHTS Assay for Promiscuous and Specific Inhibitors of Cruzain (with detergent); purified cruzain, Z-FR-AMC fluorescence, 0.01% Triton; Potency, µM, inactives show max response, negative = inhibition, hits mostly inhibitors; AID 1478, 2009; Cruzipain (Trypanosoma cruzi), P25779; 200,000 tested, 0.43% active; active means well fitted curve in the direction sought with a large enough effect; inconclusive means small, poorly fitted or top-dose-only effect, or another doubt; inactive means no such curve, though single readings can be large; an effect the other way counts as inactive or inconclusive;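 further: plate controls were neutral wells for no effect and buffer without enzyme for full effect; nearly all actives have a fitted effect of over 40% in size; top concentration of the series not given in the record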
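15 min RT preincubation of 1.5 nM cruzain with compound, then 2 uM Z-FR-AMC added; kinetic AMC fluorescence, 60 s delta. Triton X-100 0.01%, pH 5.5.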
* = called active by the depositor; ? = inconclusive; . = not tested or not shown; & = joins results of further samples; [ ] = dose if it differs, or a comment. Unless noted, the call rests on the fitted dose curve; in most records, active means well fitted rising curve with a large enough effect; inconclusive means small, poorly fitted or top-dose-only effect; inactive means no such curve, though single readings can be large or run the other way. Potency means the concentration at half of the fitted maximal effect. The order is random, and some 4.7% of all compounds hit somewhere here.

Under each structure: MARV entry inh | LASV entry inh | NS1 inh | RE007 growth inh | Cruzain inh noDet | 2A StopGo | SARS PLpro yeast | Cruzain Triton
> O=C(CN1C(=O)c2ccccc2C1=O)OCC(=O)N1CCCCC1
  1% | 19% | . | -22% | . | -1% | 6% | .
> Cc1cc(C(=O)Cn2cnc3ccccc3c2=O)c(C)n1C1CC1
  8% | 15%[46.1 µM] | . | -9% | . | 40%[activator] | . | .
> O=C(Nc1cc(S(=O)(=O)Nc2ccc(Cl)cc2)ccc1N1CCCCC1)c1ccc(F)cc1Cl
  ? | ? | 11% | 6% | ? | 43%[activator] | -7% | -7.9%
> CCOC(=O)N1CCN(Cc2nc(-c3ccc(Cl)cc3)no2)CC1
  0% | ? | -3% | -12% | ? | 0% | -2% | -1.0%
> COc1ccccc1/C=C1\SC(=S)N(CCC(=O)Nc2cc(C)on2)C1=O
  ? | -22% | 28% | -2% | . | -3% | 0% | .
> COc1ccc(C(C(=O)NC2CCCCC2)N(C(=O)c2cccs2)c2ccc3c(c2)OCO3)cc1 (stereo unspecified)
  ? | ? | 20% | 9% | -9% | . | 3% | 2.4%
> COc1ccccc1CNC(=O)Cc1ccc(C)cc1
  . | . | -5% | 2% | . | 43%[activator] | 3% | .
> Cc1ccc(N=Nc2c(N)[nH]n3c(=O)cc(C)nc23)cc1
  0% | 2% | -7% | . | -12% | -3% | 10% | -6.2%
> Cc1cc(NC(=O)CSc2nc(-c3ccccc3Cl)nc3c2c(=O)n(C)c(=O)n3C)no1
  -1%[46.1 µM] | 6%[46.1 µM] | . | 1% | . | -14% | 1% | .
> COc1ccc(S(=O)(=O)NC2CC3CCC2C3)cc1Cl (stereo unspecified)
  -15% | 9% | -78% | -4% | -2% | 55%[activator] | -22% | -1.8%
> O=C(O)Cn1nnc(-c2cccs2)n1
  ? | -1% | 10% | -8% | -9% | -16% | -1% | -0.4%
> Cc1ccc(-n2nc3c(=O)n(CCCC(=O)NC4CCC(C)CC4)nc(C)c3c2C)cc1 (stereo unspecified)
  4%[46.1 µM] | 32%[46.1 µM] | -1% | 10% | . | -13% | 4% | .
> CCN(CC)c1ccc(NC(=S)Nc2ccc(F)cc2)cc1
  ? | -10% | . | -7% | . | 15% | -4% | .
> Cc1ccc(-c2nn(-c3ccccc3)cc2C(=O)NCC2CCCO2)cc1 (stereo unspecified)
  12% | 22% | . | -12% | . | 49%[activator] | 0% | .
> COc1cccc(NC(=O)Cn2c3ccc(F)cc3c3nc4n(c(=O)c32)CCCS4)c1
  ? | ? | 25% | 2% | . | -7% | 0% | .
> CN1C(=O)N(C)C(=O)C2(Cc3cc(NC(=O)c4ccccc4)ccc3N3CCCC32)C1=O (stereo unspecified)
  3%[46.1 µM] | 5%[46.1 µM] | 10% | -11% | . | 6% | 1% | .
> CCCc1cc(=O)[nH]c(SCC(=O)Nc2cccc3ccccc23)n1
  -7%[46.1 µM] | ? | 8% | -5% | . | ? | -2% | .
> O=c1c2ccccc2[nH]c(=S)n1CCCN1CCN(C2CCCCC2)CC1
  -25% | -24% | 2% | -12% | ? | -4% | 0% | 3.9%
> Cc1c(C(=O)Nc2ccccc2F)sc2ncnc(N(C)C3CCCCC3)c12
  . | -8%[46.1 µM] | . | . | ? | -16% | . | -9.4%
> CCOC(=O)c1c(C)[nH]c(C)c1S(=O)(=O)N(C)CC(=O)NCc1ccc(C)cc1
  . | -12%[46.1 µM] | 1% | -17% | -2% | 7%&16% | -1% | 2.1%
> CCCc1ccc2oc(C(=O)N(C)CCn3ccnc3C)c(C)c2c1
  . | . | 24% | -9% | . | -2% | 5% | .
> COc1cc(C(CC(=O)N2CCCC2)c2c(OC)cc(OC)c3c(-c4ccccc4)cc(=O)oc23)cc(OC)c1OC (stereo unspecified)
  . | . | -6% | -9% | . | 3% | 0% | .
> CC(C)c1ccc(CNc2ccc3c(c2)ncn3C)cc1
  . | . | -9% | -19% | . | 15% | -3% | .
> CCn1c(=O)c2ccccc2n(CC(=O)NC2CCCCC2)c1=O
  1% | 5% | 10% | 5% | . | 17% | 0% | .
> NC(=O)C1CCN(C(=O)CCC(=O)N2CCOc3ccc(Cl)cc32)CC1
  . | . | 9% | 1% | . | -17% | 2% | .
> O=C(CC1S/C(=N/N=C/c2c[nH]c3ccccc23)NC1=O)Nc1ccccc1 (stereo unspecified)
  3% | ? | 18% | 12% | ? | 12% | 15% | -6.2%
> COc1ccccc1N(C)C(=O)c1cc(S(=O)(=O)N2CCCC2)cn1C
  . | . | 15% | 1% | . | 7% | 0% | .
> COc1cccc(CN2CCCC(N3CCc4ccccc4C3)C2)c1O (stereo unspecified)
  ? | 1%[46.1 µM] | 15% | 5% | . | -11% | -3% | .
> CN(C)/N=C/c1ccc([N+](=O)[O-])cc1[N+](=O)[O-]
  3%[46.1 µM] | ? | . | -4% | . | 0% | -1% | .
> COCCNC(=O)/C(C#N)=C\c1ccc(CNC(=O)C(=O)Nc2ccc(C)c(C)c2)o1
  1% | 13% | 5% | -6% | . | ? | -1% | .
> COc1ccc(/C=C2\SC(=S)N(NS(=O)(=O)c3ccccc3)C2=O)c(OC)c1
  . | . | -1% | 34% | . | -1% | -1% | .
> CC1(C)OC(=O)C(=Cc2ccc(-c3ccc(S(N)(=O)=O)cc3)o2)C(=O)O1
  -2% | -1%[46.1 µM] | . | 9% | . | ? | 0% | .
> CC(Sc1nnc(Cc2cccs2)n1C)C(=O)Nc1ccc(C(N)=O)cc1 (stereo unspecified)
  8% | -2%[46.1 µM] | . | 5% | . | -2% | 1% | .
> COc1ccc(C(C)(C)C)cc1NC(=O)COC(=O)c1cnc(C)cn1
  -5% | 5% | -10% | 6% | 26% | -11% | -4% | 0.6%
> CN(c1ccccn1)c1ncnc2[nH]ncc12
  . | . | 2% | -2% | . | 27% | -2% | .
> CN(c1ccccc1C(=O)Nc1ccc(S(=O)(=O)N2CCOCC2)cc1)S(C)(=O)=O
  ? | 0% | 7% | 24% | 1% | -6% | 12% | -1.9%
> CC(C)c1ccc(NC(=O)COc2nncc3ccccc23)cc1
  24%[46.1 µM] | 20% | 3% | -6% | -1% | 21% | -16% | 0.0%
> Cc1ccc(S(=O)(=O)N(C)C)cc1NC(=O)[C@H](Cc1ccccc1)N1C(=O)c2ccccc2C1=O
  6% | ? | 13% | -7% | 1% | 0% | 3% | -5.0%
> CCOC(=O)N1CCN(Cc2cn3ccccc3n2)CC1
  9% | -6% | -2% | -8% | 3% | -2% | -7% | 2.0%
> CCn1c(=O)n(CC)c2cc(S(=O)(=O)N3CCC(c4ccccc4)CC3)ccc21
  -6% | ? | -65% | 10% | ? | ? | 1% | -2.9%
> CCCCNC(=O)CSc1nc2n[nH]c(C)c2c(=N)n1-c1ccccc1CC
  . | ? | . | . | 6% | -27% | . | -1.6%
> CCN(CC)CCNC(=O)C(C)c1nn(C)c(=O)c2ccccc12 (stereo unspecified)
  15%[46.1 µM] | -10% | 3% | -8% | 2% | 1% | 8% | 1.1%
> CCC(=O)N1c2ccccc2CC1C(=O)NCCc1ccccc1Cl (stereo unspecified)
  . | 3%[46.1 µM] | . | . | -6% | 0% | . | -1.7%
> N=c1c(C(=O)NCc2ccco2)cc2c(=O)n3ccccc3nc2n1CCc1ccccc1
  ? | ? | -3% | 0% | ? | -23% | -5% | -13%
> Cc1ccc(Oc2coc3cc(OCC(=O)NC4CCCCC4)ccc3c2=O)cc1
  12%[46.1 µM] | 10%[46.1 µM] | . | . | -1% | ? | . | -1.0%
> Cn1c(=NC(=O)CS(=O)(=O)c2ccccc2)sc2cc([N+](=O)[O-])ccc21
  6%[46.1 µM] | -2% | . | 3% | . | -12% | -4% | .
> Fc1ccc(OCc2nc(-c3cccs3)no2)cc1
  ? | -15%[46.1 µM] | -5% | 6% | . | 16% | -1% | .
> O=C(O)c1cc2ccccc2cn1
  29%[46.1 µM] | 22%[46.1 µM] | . | 1% | . | 10% | . | .
> Cc1cc(O)cc(=O)n1CCc1ccccc1
  . | . | ? | -11% | . | 8% | 3% | .
> COc1ccc(C(=O)N2CC(=O)Nc3ccc(C)cc3C2c2ccccc2)cc1OC (stereo unspecified)
  ? | -26%[46.1 µM] | . | . | 5% | -13% | . | -0.3%
> O=C1OC(/C=C/c2ccccc2)=NC/1=C/C=C/c1ccccc1
  -8% | 6% | 15% | -2% | ? | -16% | -11% | 5µM*
> CC1C(=O)OC2C1CCC1(C)CCC(=O)C(C)C21 (stereo unspecified)
  11%[46.1 µM] | -1%[46.1 µM] | 3% | -16% | . | -25% | 0% | .
> CC1CCCN(Cc2cnc(Cl)s2)C1 (stereo unspecified)
  13% | -8% | 0% | -8% | 2% | -12% | 4% | 2.7%
> O=C1CC(c2ccccc2)(c2ccccc2)c2ccccc21
  ? | -6% | . | 9% | . | ? | . | .
> O=C(c1ccccc1)C(Sc1ncn[nH]1)c1ccccc1 (stereo unspecified)
  0% | 1% | 4% | -1% | 6% | -25% | 14% | -4.7%
> O=C(c1ccccc1)N1CCC2(CC1)OCCO2
  4% | 3% | 0% | 3% | . | 1% | -1% | .
> COc1ccc(-c2cc3ccccc3nc2N)cc1OC
  . | . | 0% | -8% | . | ? | 0% | .
> CCOc1ccc(-c2nc(S(=O)(=O)c3ccccc3)c(N3CCOCC3)o2)cc1
  9%[46.1 µM] | . | -2% | -17% | . | 17% | -1% | .
> O=C(COC(=O)c1cc(S(=O)(=O)NCc2ccccc2)ccc1O)NCc1ccccc1
  21%&3% | 4% | 19% | -3% | -1% | 23% | 4% | -4.2%
> C=CCN1C(=O)/C(=C/C(=O)OC)S/C1=N\NC(=O)c1ccccc1
  ? | ? | -2% | 15% | . | ? | 0% | .
> COc1ccccc1C(=O)NC1CC2CCC(C1)N2Cc1ccccc1 (stereo unspecified)
  . | . | 4% | 5% | . | 6% | 17% | .
